# TRPML1 ag: agonists of human TRPML1 channel; 410,000 tested, 0.12% active; AID 624414; TRPML1-expressing cells, Ca2+ dye fluorescence, FDSS; host cell line not named in the record; reference of the full effect not given here; activation, % (no concentration beside the values); Q9GZU1; in the data active = activation above about 50%; inconclusive = about 30% to 50%; inactive = below about 30%; further: 0% is about no effect; the text of the record puts the active cut at 80%
# Target sequence (Q9GZU1 whole entry, looked up): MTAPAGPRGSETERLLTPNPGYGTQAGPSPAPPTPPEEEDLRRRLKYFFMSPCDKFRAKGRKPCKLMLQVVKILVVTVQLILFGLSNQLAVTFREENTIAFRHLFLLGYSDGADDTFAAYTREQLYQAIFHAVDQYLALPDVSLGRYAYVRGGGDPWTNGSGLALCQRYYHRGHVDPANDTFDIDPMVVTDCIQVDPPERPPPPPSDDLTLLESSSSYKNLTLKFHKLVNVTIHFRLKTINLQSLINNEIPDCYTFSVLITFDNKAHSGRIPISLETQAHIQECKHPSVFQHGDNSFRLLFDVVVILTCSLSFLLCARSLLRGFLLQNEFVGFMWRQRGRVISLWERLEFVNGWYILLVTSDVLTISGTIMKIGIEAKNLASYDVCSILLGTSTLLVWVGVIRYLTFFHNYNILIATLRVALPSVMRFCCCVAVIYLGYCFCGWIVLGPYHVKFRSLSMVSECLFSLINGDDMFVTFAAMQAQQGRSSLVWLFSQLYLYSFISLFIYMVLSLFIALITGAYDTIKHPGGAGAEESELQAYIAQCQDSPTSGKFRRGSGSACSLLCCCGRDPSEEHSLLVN
#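 Tet-induced TRPML1-DL cells, 1,500 per well, cultured overnight, were loaded with a no-wash Ca2+ dye for 45–90 min. Calcium fluorescence was recorded on the FDSS for 110 s after compound addition, before the EC80 agonist (4 uM 54-4) was added.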
# D2 PAM: potentiates the human D2 dopamine receptor allosterically; DiscoveRx D2 beta-arrestin cells, luminescence, 90 min; 100% = 57 uM dopamine signal; potentiation, % (no concentration beside the values); 360,000 tested, 0.23% active; active = potentiation of 50% or more; inconclusive = 30% to 50%; inactive = 30% or less;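 further: compound concentration not given in the record; tested on top of an EC20 dose of dopamine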
# Target sequence (P14416 whole entry, looked up): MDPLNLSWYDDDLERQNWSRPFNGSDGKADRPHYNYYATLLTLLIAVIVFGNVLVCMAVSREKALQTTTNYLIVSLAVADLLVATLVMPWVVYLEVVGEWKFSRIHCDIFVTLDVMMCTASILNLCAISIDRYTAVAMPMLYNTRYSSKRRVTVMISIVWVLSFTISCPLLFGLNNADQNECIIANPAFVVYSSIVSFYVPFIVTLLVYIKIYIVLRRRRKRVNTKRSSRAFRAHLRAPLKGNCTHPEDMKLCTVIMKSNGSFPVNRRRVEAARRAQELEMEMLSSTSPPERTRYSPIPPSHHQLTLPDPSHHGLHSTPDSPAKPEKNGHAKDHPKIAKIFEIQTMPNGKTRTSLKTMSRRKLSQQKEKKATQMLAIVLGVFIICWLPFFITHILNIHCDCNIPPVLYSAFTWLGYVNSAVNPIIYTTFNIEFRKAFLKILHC
#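 PathHunter beta-arrestin assay in DiscoveRx D2 cells. Compounds were added with an EC20 of dopamine (50 nM final) for 90 min at 37 deg C. Luminescence was read 1 h after detection reagent, with 57 uM dopamine as the EC100 control.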
# PINK1 modulator: modulators of PINK1 expression; 410,000 tested, 0.2% active; AID 624263; PINK1 immunofluorescence, high-content cytometry, 24 h; Potency, µM (top dose mostly 76.6 µM), for inactives: top-dose activation (PINK1 increase), actives largely listed as activators; active = well fitted activation curve with a large enough effect; inconclusive = small, poorly fitted or top-dose-only effect; inactive = flat fitted curve, though single readings scatter; cell line not stated here;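 further: potency means the concentration at half of the fitted maximal effect; % of control where 0% means no effect; nearly all actives have a fitted effect of over 65% in size; a mitochondrial uncoupler was the plate control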
#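 Fluorescence from anti-PINK1 antibody, together with nuclear and cell stains, was scanned on a laser-scanning cytometer. Before staining, stable-line cells were incubated 24 hours with compounds at 5 concentrations; primary antibody 12 h at 10 degrees C.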
# TRPML1 inh: inhibitors of human TRPML1 channel; Q9GZU1; TRPML1-inducible cells, Ca2+ dye fluorescence, FDSS; hits give low values; inhibition of EC80 agonist-evoked calcium signal; activity change, negative = inhibition, % (no concentration beside the values); 390,000 tested, 0.02% active; AID 624415; in the data active means activity change below about -50%; inconclusive means about -30% to -50%; inactive means above about -30%;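 further: stimulus is agonist 54-4 at its EC80 concentration; on the % scale 0 is the no-effect control and ±100 the full control effect; compound concentration not given in the record; the text of the record puts the active cut at -80%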
#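 Calcium fluorescence in TRPML1-DL cells induced overnight with Tet: a 110 s read after compound pin addition, then a 110 s antagonist read after challenge with 54-4 at 4 uM final (EC80).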
# Six1-Eya2 blk: blocks human Six1 binding to Eya2; Q15475+O00167; AlphaScreen GST-Six1/His-Eya2 binding, biochemical; hits give low values; control for the full effect not named in the record; activity change, % (no concentration beside the values); 360,000 tested, 0.56% active; in the data active = activity change below about -65%; inconclusive = about -30% to -65%; inactive = above about -30%; further: on the % scale 0 is the no-effect control and ±100 the full control effect; compound concentration not given in the record
#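 GST-Six1 + His-Eya2 (5X stock: 250/500 nM); Tris pH 8.0, 300 mM NaCl, 0.05% BSA, 0.02% Tween 20; GSH donor/Ni acceptor beads; 1 h 37 °C dark; AlphaScreen readout.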
# D2 ag: activates the human D2 dopamine receptor. P14416. DiscoveRx PathHunter D2 beta-arrestin, luminescence, 90 min; 100% = 57 uM dopamine signal. activation, % (concentration not given with the values). 360,000 tested, 0.084% active. AID 624465; in the data active = activation above about 40%; inconclusive = about 15% to 40%; inactive = below about 15%; further: compound concentration not given in the record; the text of the record calls up to 30% inactive
#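 DiscoveRx PathHunter D2 beta-arrestin cells (2,100/well) attached overnight, then compound-stimulated 90 min at 37 C in HBSS/10 mM HEPES/0.1% Tween-20 buffer; beta-galactosidase complementation read by luminescence after 1 h at ambient temperature. Dopamine 57 uM final (EC100) as control.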
# The depositor's hits bear a star; ? = inconclusive; / = not tested or not shown; & = joins results of further samples; [ ] = dose if it differs, or a comment.
SMILES,TRPML1 ag,D2 PAM,PINK1 modulator,TRPML1 inh,Six1-Eya2 blk,D2 ag
Clc1cccc(OCCCCCN2CCOCC2)c1,-0.1,-24,0.0%,-2,4,2.0
O=C(NC1CCN(C(=O)c2ccccc2Br)CC1)c1ccccc1,0.5,-3,0.2%,-13,-1,-0.4
O=C(CSCC(=O)N1CCCCC1)Nc1nc(-c2cccs2)cs1,0.3,-1,0.6%,15,-8,4.6
CCOC(=O)C1CCCN(C(=S)NC(=O)c2cc(Br)ccc2Cl)C1 (configuration not stated),0.9,9,9.8%,-12,-7,-3.6
Cc1ccccc1C(=O)O[C@H]1[C@H](Cc2ccccc2)NS(=O)(=O)[C@H]2CC3C=C[C@]12O3,0.0&0.2,-3,-0.4%,15,4,-2.9
Cc1cc(C(=O)N/N=C/c2ccccc2Br)no1,-0.4,-31,-0.9%,7,3,-7.2
CCCCN(C(=O)CCC(=O)O)C1CC(=O)N(c2ccc(OCCC)cc2)C1=O (configuration not stated),-0.7,-12,0.7%,2,-1,-0.5
CCCCCn1c(=O)[nH]c2cc(C(=O)NCCCN3CCC(C)CC3)ccc2c1=O,-0.8,-17,-1.4%,5,0,-1.7
COc1cc(NC(=O)c2cccs2)c(OC)cc1NC(=O)CCn1nnc2ccccc21,0.2,-1,-4.6%[38.3 µM],-2,?,-0.6
O=C(N/N=C/c1ccco1)C1CC(=O)N(c2ccccc2)C1 (configuration not stated),-0.2,-6,-4.3%,-3,9,-4.6
Cc1c(C(=O)N2CC(C)OC(C)C2)oc2ccccc12 (configuration not stated),0.0,-7,-2.6%[38.3 µM],5,1,2.6
CC1CCN(S(=O)(=O)c2ccc3nc(Nc4cccc(C(F)(F)F)c4)ccc3c2)CC1,1.1,/,?,4,/,/
O=C(CCCN1C(=O)c2cccc3cccc(c23)C1=O)N1CCN(c2ncccn2)CC1,-0.1,-7,6.2%,-21,-3,-6.5
Cc1cccc(-n2ncc3c2CCCC3NC(=O)C2(C(N)=O)CC2)c1C (configuration not stated),0.9,-10,0.2%,1,1,2.3
CC(c1ccc(O)cc1)(c1ccc(O)cc1)c1ccc(CCBr)cc1,1.8,-18,0.8%,23,3,-1.2
COc1ccc(CN(CC(=O)NCc2ccc(F)cc2)C(=O)CCC(=O)Nc2nccs2)cc1,-0.2,-5,6.3%,19,10,-4.8
CCOC(=O)c1c(NC(=O)CSc2nnc(CNc3ccc(F)cc3)o2)sc(C)c1C,1.2,0,0.7%,-20,-12,-3.0
COc1ccccc1N1C(=O)c2ccc(C(=O)Nc3cccc(C(C)=O)c3)cc2C1=O,2.9,-1,-3.2%,-10,-4,4.1
O=C(CN1C(=O)NC2(CCc3ccccc32)C1=O)NCC(F)(F)F (configuration not stated),0.0,-1,0.7%,-2,10,3.0
O=C(NC1CCCC1)c1ccc2c(=O)n(Cc3ccccc3)c(SCc3cccc([N+](=O)[O-])c3)nc2c1,1.1,/,-0.2%,3,/,/
O=C(NCc1cccs1)c1cccc(Nc2nc3ccc(Br)cc3[nH]2)c1,-0.5,-3,?,-12,0,-0.5
COc1ccc(-c2noc(CSc3nnc(C)n3-c3ccc(C)c(C)c3)n2)c(OC)c1,2.1,/,-1.9%,17,/,/
Cc1cc(C)nc(NS(=O)(=O)c2ccc(NC(=O)c3cc(=O)c4ccc(C)c(C)c4o3)cc2)n1,1.7,/,1.4%,-4,/,/
O=C(NOCc1ccccc1)c1ccc([N+](=O)[O-])cc1,0.8,8,0.5%,-6,8,-2.8
O=C(Nc1ccc(O)cc1)c1ccc2c(c1)C(=O)N(Cc1ccco1)C2=O,-0.5,-8,1.9%,1,-14,-0.2
CCc1ccc(OCC(=O)OCC(=O)c2c(N)n(C)c(=O)n(C)c2=O)cc1,2.4,-6,-1.2%,-15,-14,-0.5
NC(=O)c1cc(Br)cc2c3c([nH]c12)CCCC3,1.1,1,-1.1%,10,-22,-0.7
O=C(/C=C/c1ccc(Br)cc1)NC(=S)NNC(=O)c1ccco1,0.2,-40,-0.1%,12,-19,-7.5
Cc1cc2ncn(S(=O)(=O)c3ccc(S(=O)(=O)N4CCCCCC4)cc3)c2cc1C,-0.3,-2,/,-14,5,0.8
Cn1c2ccccc2c2ncn(CCN3CCOCC3)c(=O)c21,-0.8,-4,-4.5%,-5,-5,-3.1
CCOC(=O)CSc1nnc(CNC(=O)c2cccc(C)c2)n1-c1ccccc1OC,-0.1,-1,1.9%,12,13,-0.1
COc1cc(C(=O)NC(=S)Nc2ccc(Cl)c(C(=O)O)c2)cc(OC)c1OC,-0.1,-11,-0.3%,31,-3,-4.7
CCOc1ccc(OCC)c(NC(=O)C2CCCN(S(=O)(=O)c3ccc(C)cc3)C2)c1 (configuration not stated),-0.8&2.4,-9,1.1%&-0.5%,18&64,-11,-1.9
O=C(O)c1cc2ccccc2c2c1C(=O)c1ccccc1-2,-0.2,-7,1.7%,3,-13,-5.5
NNc1nc(-c2ccccc2)nc(-c2ccccc2)c1Br,0.8,0,0.0%,2,-1,-1.5
CC(=O)NC(C)(c1ccccc1)c1nc(-c2cccc(C(F)(F)F)c2)cs1 (configuration not stated),-0.6,-5,0.6%,/,-6,-2.7
Cc1csc(NC(=O)CSc2nncc(=O)n2N)n1,1.1,0,2.6%,4,2,5.3
O=C(NCCc1ccc(Cl)cc1)c1ccc(CS(=O)(=O)c2ccc(Cl)cc2)o1,2.4,/,2.5%,-10,/,/
CCNC(=S)NNC(=O)c1ccccn1,-0.4,10,-0.8%,-2,-95*,-6.7
CC1CCN(C(=O)Cn2c(=O)n(Cc3ccc4c(c3)OCO4)c(=O)c3ccccc32)CC1,2.4,-35,-2.6%,-6,5,-1.2

# Molecules listed so far that contain an NH in an aromatic ring (3):
SMILES,TRPML1 ag,D2 PAM,PINK1 modulator,TRPML1 inh,Six1-Eya2 blk,D2 ag
CCCCCn1c(=O)[nH]c2cc(C(=O)NCCCN3CCC(C)CC3)ccc2c1=O,-0.8,-17,-1.4%,5,0,-1.7
O=C(NCc1cccs1)c1cccc(Nc2nc3ccc(Br)cc3[nH]2)c1,-0.5,-3,?,-12,0,-0.5
NC(=O)c1cc(Br)cc2c3c([nH]c12)CCCC3,1.1,1,-1.1%,10,-22,-0.7

# Taken from the listing, 2 compounds:
SMILES,TRPML1 ag,D2 PAM,PINK1 modulator,TRPML1 inh,Six1-Eya2 blk,D2 ag
Clc1cccc(OCCCCCN2CCOCC2)c1,-0.1,-24,0.0%,-2,4,2.0
O=C(NC1CCN(C(=O)c2ccccc2Br)CC1)c1ccccc1,0.5,-3,0.2%,-13,-1,-0.4

# Next section.
SMILES,TRPML1 ag,D2 PAM,PINK1 modulator,TRPML1 inh,Six1-Eya2 blk,D2 ag
CSC1=NCCN1C(=O)c1ccc(S(=O)(=O)N2CCCCC2)cc1,-0.2,-2,-0.2%,-1,24,0.4
O=S(=O)(c1cccc(F)c1)N1CCC(c2nc3ccccc3s2)CC1,-0.5,/,0.5%,-10,/,/
CC(=O)c1c(C)[nH]c(C(=O)OC2CCOC2=O)c1C (configuration not stated),0.2,-11,-1.3%,5,-1,-2.0
O=C(N/N=C/c1cccc(F)c1)c1c(O)c2c([nH]c1=O)CCCC2,-0.1,-10,24%,-3,13,0.0
Cc1ccc(F)cc1NC(=O)C1CC(=O)N(Cc2ccccc2)C1 (configuration not stated),-0.5,-10,-1.7%,0,0,-3.0
COc1ccc(NC(=O)CO/N=C(\C)c2cccs2)cc1,0.1,-4,-0.8%,11,5,2.0
CSCC[C@H](NC(=O)OC(C)(C)C)c1nnc(SCC=C(C)C)o1,0.0,-2,-0.1%,14,2,2.9
Cc1ccsc1C(=O)NC1CCCCC1C (configuration not stated),-0.7,-4,-0.1%,-24,-2,2.2
CCN(C(=O)C1CCCN(c2ncnc3c2nc2n3CCCCC2)C1)c1cccc(Cl)c1 (configuration not stated),4.5&0.0,-10,-0.9%&1.0%,0&-8,-7,2.3
O=C(O)c1ccc(C2NCC(c3ccccc3Cl)c3c2[nH]c2ccccc32)cc1 (configuration not stated),0.7,-5,0.4%,8,-9,-2.2
CCOC(=O)c1cc(-c2ccc(OC)cc2)nc2c1c(C)nn2CCC#N,1.1,-9,2.1%,20,24,-2.5
CCCCN(C(=O)CN(C)CC(=O)Nc1cccc(OC)c1)c1c(N)n(CCCC)c(=O)[nH]c1=O,0.2,-5,-0.4%,13,4,-6.1
C#C[C@]1(O)CC[C@H]2[C@@H]3CCC4=Cc5oncc5C[C@]4(C)[C@H]3CC[C@@]21C,0.2,-5,-0.6%,28,0,-3.9
Cc1ccc(S(=O)(=O)N(CC(=O)NCc2ccco2)Cc2ccc(F)cc2)cc1,-0.9,-4,-0.2%,1,-1,-4.4
c1ccc(N2CCN(c3ncnc4scc(-c5cccs5)c34)CC2)cc1,19,4,29%[38.3 µM],-7,4,-1.9
Cc1cc(C)cc(NC(=O)CN2C(=O)C3CC=CCC3C2=O)c1 (configuration not stated),0.2,-1,-1.5%,9,4,1.0
CCOC(=O)CC1C(=O)NCCN1C(=O)COc1ccc(Br)cc1C (configuration not stated),0.1,5,3.4%,-6,7,-4.0
COc1ccc(CCN2CC(C(=O)OC(C)C(=O)Nc3cccc(Cl)c3)CC2=O)cc1OC (configuration not stated),-1.4,4,0.7%,4,-2,-1.9
Cc1ccc2[nH]cc(C(c3ccccc3)c3cccs3)c2c1 (configuration not stated),10,/,15%,-16,/,/
COC(CNS(=O)(=O)c1ccc(S(=O)(=O)NC2CC2)cc1)OC,-0.2,-1,1.0%,-3,5,1.8
O=C(CCCOc1ccc(Cl)cc1Cl)NCCc1nnc2ccccn12,-0.7,-8,2.6%,1,3,0.9
Cc1ccc2c(c1)c1c(c(=O)n(-c3cccc(Cl)c3)c(=O)n1CC(=O)Nc1c(C)cccc1C)n2C,0.0,/,0.8%,14,/,/
COc1cccc(N(CC(=O)N2CCN(c3ccccc3OC)CC2)S(C)(=O)=O)c1,-0.9,-8,-1.2%,10,-1,-3.2
CC(=O)Nc1ccc(S(=O)(=O)NCC(=O)OCC(=O)NCc2ccc3c(c2)OCO3)cc1,-0.6,-14,-0.3%,-3,4,5.0
CC(=O)Oc1ccc(/C=N/NC(=O)C2CCCN2S(=O)(=O)c2ccc(Cl)cc2)cc1 (configuration not stated),0.1,-8,2.0%,0,-9,-4.1
COc1cc(C(=O)N2CCN(C(=O)c3ccco3)CC2)cc(OC)c1OC,-0.2,-11,1.5%,31,-1,-4.6
Cc1c(NC(=O)c2ccco2)cccc1-c1nc2cccnc2s1,2.1,-10,3.1%,1,-1,-6.1
CCOC(=O)c1cccc(NC(=O)COc2ccc([N+](=O)[O-])cc2)c1,1.9,-17,-1.9%[38.3 µM],2,-2,-0.1
CC(=O)Cc1nsc(NC(=O)c2ccc(F)cc2)n1,-0.5,-7,0.9%,-2,-17,-2.0
CC(=O)Nc1nc(C)c(Oc2ccccc2)c(=O)[nH]1,-1.0,-4,0.7%,-6,7,-2.7
Cc1ccc(N(CC(=O)NC2CCCCC2)S(=O)(=O)c2c(C)noc2C)cc1,0.2,-7,4.8%,-13,22,-3.6
Cc1ccc(NC(=O)CSc2nc(C3CCCC3)nc3c2c(=O)n(C)c(=O)n3C)c(C)c1,1.3,/,-0.1%,-11,/,/

# Compound activity from PubChem.
